Rango complex inh: prevents formation of the Rango-importin beta complex; Q14974; Rango CFP/YFP FRET sensor + importin beta, 45 min; Potency, µM (titrated, usually from 92.2 µM), for the others: at the highest dose inhibition of complex formation; hit rate 0.031% among 340,000; active = rising FRET ratio curve, often small or poorly fitted; inconclusive = mostly compound fluorescence or quenching in the first reads; inactive = flat curves in all reads;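 further: potency means the concentration at half of the fitted maximal effect; 0% = DMSO wells and 100% = buffer wells lacking importin beta; nearly all actives have a fitted effect of over 15% in size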
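FRET biosensor (snurportin 1 IBB flanked by EYFP and cerulean), 50 nM, with compound 5 min, then 0.125 microM importin beta in PBS, 1 mM DTT, 0.02% Tween-20, 0.1% BSA. CFP/YFP ratio read after 45 min at room temperature; pre-read flags interference.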
miR-21 reporter: miR-21 reporter, rising signal; HeLa miR-21 FLuc reporter, luciferase, 48 h; Potency, µM (top dose mostly 38.3 µM), inactives show at the highest dose reporter change, positive = more light; 340,000 tested, under 10 active; active = well fitted rising curve with a large enough effect; inconclusive = small, poorly fitted or top-dose-only effect; inactive = no such curve, though single readings can be large or run the other way;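 further: % of control where 0% means no effect; miR-21 action dims this reporter so a rising signal means less miR-21 action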
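HeLa miR-21-FLuc reporter line, endogenous miR-21; 2000 cells/well in DMEM/10% FBS; compound titration up to ~40uM final, 48 h, 37 degree Celsius; luciferase detection reagent, 15 min lysis, CCD luminescence.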
Rango dissoc inh: prevents RanGTP from dissociating the Rango-importin beta complex; O95149+P62826; AID 540253; Biochemical FRET Rango-importin beta, RanGTP-induced dissociation; Potency, µM (highest dose often 46.1 µM), inactives show at the highest dose activity change, negative = inhibition; hit rate 0.071% among 340,000; active means falling FRET ratio curve, often poorly fitted, with flat reads before Ran was added; inconclusive means other falling curves, or compound fluorescence or quenching; inactive means flat or rising ratio curve;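 further: potency means the concentration at half of the fitted maximal effect; % of control where 0% means no effect; nearly all actives have a fitted effect of over 45% in size; -100% = wells without RanGTP and RCC1; the record marks most hits as doubtful in a second field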
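Compounds sat 5 min at room temperature with 0.1 uM Rango biosensor plus 0.25 uM importin beta, then FRET pre-read. RanGTP-RCC1 (0.6 uM Ran, 2mM GTP, 0.2 uM RCC1) added for 45 min, and the CFP/YFP post-read measured blocked complex dissociation.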
GLA inh pH 4.5: alpha-galactosidase A (human) inhibition, pH 4.5; P06280; purified enzyme, 4-MU-alpha-Gal fluorescence, pH 4.5; activity change, negative = inhibition, % at 105 µM; 230,000 tested, under 10 active; inconclusive = small, poorly fitted or top-dose-only inhibition, or a rising curve; inactive = flat fitted curve, though single readings scatter; no compound was filed as active;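 further: 0% = full activity with enzyme and -100% = basal without enzyme; dose as in the result columns while the protocol names 77 µM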
Target sequence (P06280 whole entry, looked up): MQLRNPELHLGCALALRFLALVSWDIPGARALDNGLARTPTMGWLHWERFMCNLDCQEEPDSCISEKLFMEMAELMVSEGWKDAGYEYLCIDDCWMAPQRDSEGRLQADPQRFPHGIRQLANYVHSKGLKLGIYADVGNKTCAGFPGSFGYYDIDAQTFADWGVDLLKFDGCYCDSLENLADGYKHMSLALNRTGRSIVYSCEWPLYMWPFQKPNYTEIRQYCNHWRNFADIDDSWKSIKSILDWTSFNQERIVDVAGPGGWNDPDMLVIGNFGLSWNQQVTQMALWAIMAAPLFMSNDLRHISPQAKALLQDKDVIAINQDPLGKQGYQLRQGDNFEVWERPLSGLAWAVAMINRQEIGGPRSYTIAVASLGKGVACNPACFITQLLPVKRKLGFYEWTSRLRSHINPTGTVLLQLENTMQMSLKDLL
The depositor's hits bear a star; ? = inconclusive; . = not tested or not shown; & = joins results of further samples. An excerpt. The share of hits here may be higher or lower than overall.

The line under a structure holds: Rango complex inh, miR-21 reporter, Rango dissoc inh, GLA inh pH 4.5
COc1cccc(C(=O)CSc2nnc(-c3ccco3)n2CC2CCCO2)c1 (stereo unspecified)
→ -1.1%, -7%, -10%, -3
COc1ccccc1CNS(=O)(=O)c1c(C)nc2sccn2c1=O
→ -0.5%, 1%&4%, -4%, .
COC(=O)CCC(=O)NC1CC(C)(C)Cc2c1cnn2-c1ccc(F)cc1 (stereo unspecified)
→ 2.1%, -5%, -5%, .
N#CC1(NC(=O)COC(=O)c2cc(O)c3ccccc3c2O)CCCCC1
→ 0.8%, ., -18%, .
CN(C)c1ccc(C2Nc3ccccc3C(=O)N2CCN2CCNC2=O)cc1 (stereo unspecified)
→ 3.9%, -9%, 13%, -30
Cc1c(C(=O)N(C)c2ccccc2Cl)cnn1-c1ccccc1
→ 0.2%, -6%, 6%, .
CCCCNc1c(C(=O)OCC)c(=O)[nH]c2ccccc12
→ 1.1%, 6%, 9%, 0
CC(C)C1=CC(=NS(=O)(=O)c2cccc([N+](=O)[O-])c2)C=C(C(C)C)C1=O
→ 0.2%, -3%, 4%, -11
COc1ccc2nc(NC(=O)c3cccc(-c4cc5ccccc5oc4=O)c3)sc2c1
→ -0.6%, -50%, -15%, 2
Cc1ccc(CNC(=O)COC(=O)[C@@H]2CC(O)CN2S(=O)(=O)c2ccc3c(c2)OCCO3)cc1 (stereo partly specified)
→ -3.4%, -2%, -13%, -5
CCCc1c(C(=O)N/N=C/c2cccnc2)nnn1-c1nonc1N
→ ?, 0%, -5%, .
Cc1cccc(C)c1NC(=S)N(Cc1cccnc1)Cc1ccccc1Cl
→ 4.5%, 7%, -3%, -1
CC(C)CCNC(=O)CCSCCC(=O)NCCC(C)C
→ -2.9%, -3%, -7%, 8
COc1ccc(OC)c(NC(=O)CCN2CCC(C)CC2)c1
→ -1.1%, -1%, 8%, -10
CCCNc1c(NC(=O)COc2ccc(Cl)cc2)c(=O)oc2ccccc12
→ 1.3%, 2%, -1%, .
COc1ccc(CCC(C)NCc2ccc(C(F)(F)F)cc2)cc1 (stereo unspecified)
→ -0.1%, 8%, 16%, .
CCOC(CNC(=O)c1ccc2nc(N3CCC(C)CC3)sc2c1)OCC
→ 0.1%, -45%, -6%, 1
O=C(O)c1ccccc1-c1ccccc1C(=O)Nc1ccc(-c2nc3cc(Cl)ccc3o2)cc1
→ 2.4%, -52%, -12%, -10
O=C(c1ccc(Cl)c([N+](=O)[O-])c1)N(Cc1ccco1)C1CCS(=O)(=O)C1 (stereo unspecified)
→ 1.8%, 6%, -14%, .
CCOCCCNC(=O)Cc1ccc(F)cc1
→ ., -6%, ., 1
CSCC[C@H](N)C(=O)N1CCC(C(=O)N[C@H](C)C(=O)Nc2ccc(C(C)C)cc2)CC1
→ -2.2%, 2%, -12%, .
COc1ccc(C(=O)c2c[nH]c(C(=O)NCC3CCCO3)c2)cc1 (stereo unspecified)
→ 0.3%, -17%, 1%, 5
CCOC(=O)CN1C(=O)C(=O)N(Cc2c(C)cc(C)cc2C)C1=O
→ 4.9%, -12%, 14%, .
CCCNC(=O)COC(=O)/C(C#N)=C/c1cc(C)n(CCC)c1C
→ -0.1%, -9%, -9%, 6
COc1ccc(-c2nnn(CC(=O)c3ccccc3)n2)cc1OC
→ -1.1%, -21%, -9%, -1
Cc1cc(C2=NNC(=NCCc3ccccc3)SC2)c(C)n1-c1c(C)n(C)n(-c2ccccc2)c1=O
→ -0.6%, 0%, -9%, 3
CCOC(=O)C(=O)N=Nc1c(O)n(C)c2ccccc12
→ 4.2%, -1%, -8%, 5
COc1cc(CCCN2C(N)=NC[C@@H]2Cc2ccc(O)cc2)cc(OC)c1OC
→ 2.6%, -3%, 7%, 5
CSc1ccccc1C(=O)Nc1cccc(C(C)O)c1 (stereo unspecified)
→ -3.8%, -3%, -3%, -3
COc1ccc(CNC(=O)CN(Cc2ccccc2)S(=O)(=O)c2ccc(Cl)cc2)cc1
→ 0.4%, 17%, 2%, -3
COc1ccccc1CNC(=O)c1ccc(NC2=NC3CS(=O)(=O)CC3S2)cc1 (stereo unspecified)
→ -3.2%, 4%, 9%, .
CCOC(=O)N1CCN(Cc2ccc(OCC(O)CN3CCCCC3)cc2)CC1 (stereo unspecified)
→ 5.4%, 4%, 20%, .
CC(C)c1nnc(NC(=O)COc2ccc3c(c2)OCO3)s1
→ 0.2%, -16%, -16%, .
CCn1c(SCc2cc(=O)n3ccsc3n2)nc2ccccc21
→ 1.0%, -25%, -2%, -5
O=C(CCNC(=O)c1ccc(Br)cc1)Nc1ccccc1N1CCCC1
→ 0.0%, ., -4%, .
CCOC(=O)N1CCN(C(=O)Cn2nc(C)n3nc(-c4ccc(OC)cc4)cc3c2=O)CC1
→ 2.5%, -2%, 0%, .
CCn1cnc2sc(C(=O)N3CCN(c4ccc(OC)cc4)CC3)c(C)c2c1=O
→ 8.3%, -4%, -5%, 2
CC(=O)/C=C(/C)NC(Cc1c[nH]c2ccccc12)C(=O)O (stereo unspecified)
→ -0.5%&-0.1%, -3%&-2%, 0%&0%, -3&5
Cc1cccc(NC(=O)CN2CCN(C(=O)c3ccc(OCc4cn5ccccc5n4)cc3)CC2)c1C
→ 2.0%, ., 6%, .
CS(=O)(=O)N(CC(=O)NCCSc1ccc(Cl)cc1)c1ccc2c(c1)OCO2
→ 0.3%, -2%, -4%, -2
COc1ccc(NC(=O)c2ccc(CNS(=O)(=O)c3cccc(OC)c3)cc2)cc1
→ 8.1%, -6%, -3%, ?
O=C(COC(=O)c1nc(Cl)ccc1Cl)Nc1cccc(S(=O)(=O)N2CCOCC2)c1
→ 0.3%, ., -4%, .
CCOC(=O)c1c(-c2ccc(F)cc2)csc1NC(=O)CCN1C(=O)c2ccccc2C1=O
→ -2.2%, 0%, -1%, -10
CC(C)(C)OC(=O)N(Cc1ccccc1)Cc1ccc(OCc2cccc(NC(=O)C3CC3)c2)cc1
→ 1.9%, ., 4%, .
COc1ccc(OC)c(N2C(=O)CC(Cc3ccc(Cl)cc3)C2=O)c1 (stereo unspecified)
→ -0.9%, -10%, 10%, -4
CC(Sc1nncs1)C(=O)Nc1ccc(Cl)cn1 (stereo unspecified)
→ 4.9%, -14%, 2%, 8
Cn1c(-c2ccc(C#N)cc2)c(C#Cc2ccccc2)c2ccccc21
→ ?, ., ?, .
Cn1nc(C(=O)NCc2ccccn2)c2ccccc2c1=O
→ -2.4%, -7%, 2%, 1
O=[N+]([O-])c1cccc(Cl)c1N1CCOCC1
→ -0.6%, -2%, -6%, -1
COc1ccccc1N(CN1CCCC1=O)C(=O)c1c(F)cccc1F
→ 0.3%, -3%, 7%, 7
COc1cccc(NC(=O)C(=O)c2cn(CC(=O)N3CCOCC3)c3ccccc23)c1
→ 4.9%, -33%, 13%, .
CCCCC(CC)CNC(=O)c1ccc2c(c1)OCO2 (stereo unspecified)
→ 0.5%, -10%, 0%, -12
O=C(N/N=C/c1ccc(N2CCOCC2)cc1)c1cccs1
→ 0.7%, -63%, -5%, -1
NNC(=O)c1nn(-c2ccccc2)cc1O
→ ., -6%, ., -5
Nc1nnnn1N=C1CCCCC1
→ 0.1%, -2%, 7%, 2
CC(=O)N(C)c1ccc(NC(=O)c2ccc([N+](=O)[O-])cc2Cl)cc1
→ -0.8%, -2%, 5%, -4
Nc1nc(SCC(=O)C23CC4CC(CC(C4)C2)C3)n[nH]1
→ -3.9%, -9%, 1%, 3
CN(C(=O)COC(=O)CN1C(=O)c2cccc([N+](=O)[O-])c2C1=O)c1ccccc1
→ ?, ., -14%, .
CCOC(=O)c1cc(CC)sc1NC(=O)COC(=O)c1cnccn1
→ -0.5%, ., -4%, .
NS(=O)(=O)c1ccc(CCNC(=O)COC(=O)Cc2ccc([N+](=O)[O-])cc2)cc1
→ -0.6%, ., 10%, .

Next entries.
The line under a structure holds: Rango complex inh, miR-21 reporter, Rango dissoc inh, GLA inh pH 4.5
CC(C)(C)OC(=O)NCCCCCc1nnc(SCc2cccc(F)c2)o1
→ 4.6%, 11%, 1%, -7
O=C(CSc1nnc(-c2ccc(Cl)cc2)o1)N1CCOCC1
→ -1.3%, -49%, -8%, .
O=C(NCC(=O)N1CCCC(C(F)(F)F)C1)c1ccc(Br)o1 (stereo unspecified)
→ -1.4%, ., 0%, .
N#Cc1ccc(NC(=O)COC(=O)c2cccnc2Cl)cc1
→ -1.0%, ., -3%, .
CC(C)=CCc1c(-c2ccc(O)cc2O)oc2cc3c(c(O)c2c1=O)C=CC(C)(C)O3
→ -1.6%, ., -9%, .
C=C[C@@H]1c2ccccc2N(S(=O)(=O)c2ccc(C)cc2)[C@H](c2ccc(C(=O)OC)cc2)C1(C#N)C#N
→ -2.2%, ., -17%, .
O=C(CN1CCCC1=O)NC1(C(F)(F)F)NC(=O)N(Cc2ccccc2)C1=O (stereo unspecified)
→ 1.3%, 2%, 20%, 4
COc1ccc(Br)cc1CN(C)CC(=O)Nc1ccccc1Cl
→ -4.2%, -11%, 9%, -5
Cc1nn(C)c(C)c1NC(=S)Nc1ccc(S(=O)(=O)Nc2ncccn2)cc1
→ -2.0%, -4%, -7%, .
Cc1ccc(-n2nnnc2SCC(=O)N2CCc3ccccc3C2)c(C)c1
→ -1.9%, -5%, -3%, 1
COc1cccc(C2NC(=O)c3sc(=S)n(-c4ccccc4)c3N2)c1 (stereo unspecified)
→ -0.7%, 6%, 10%, 3
CCOC(=O)Cc1csc(NC(=O)CSc2nc(C)cc(C)n2)n1
→ 1.7%, ., 8%, .
O=C(CCl)N1CCN(CC(=O)N2CCCC2)CC1
→ 2.0%, 15%, 7%, .
O=C1CCCN1c1ncc(S(=O)(=O)c2ccc([N+](=O)[O-])cc2)s1
→ 0.6%, 19%, 8%, -6
CCN(CC(=O)NCc1ccc(Cl)cc1)C(=O)c1cc(OC)cc(OC)c1
→ ?, 13%, -20%, .
O=C(c1ccco1)N1CCN(Cc2cc(=O)c(OCc3c(F)cccc3Cl)co2)CC1
→ -1.0%, ., 8%, .
CCOc1ccc(-n2cc(-c3ccccc3)c3c(=S)nc[nH]c32)cc1
→ -5.1%, -5%, -5%, .
COc1cccc(CN(C)CC2CCCN(CCc3ccc(Cl)cc3)C2)c1OC (stereo unspecified)
→ 0.5%, -1%, 13%, .
COc1cccc(NC(=O)c2ccc3c(O)c(S(=O)(=O)c4ccccc4)c(=O)[nH]c3c2)c1
→ -3.2%, -1%, 4%, .
Cc1ccc(-c2ocnc2C(=O)Nc2ccccc2NC(=O)c2ccccn2)cc1
→ 1.2%, 9%, -9%, .
CC(C)CCN=Cc1c(O)n(-c2ccccc2)c(=O)c2ccccc12
→ -2.8%, 0%, 4%, -4
O=C1C(C2=NC(c3ccccn3)C3C(=O)N(c4ccc(OC(F)(F)F)cc4)C(=O)C23)=C(O)c2ccccc21 (stereo unspecified)
→ 6.2%, -2%, -1%, -3
COc1cccc(CN(C(=O)c2ccccc2Br)C2CCS(=O)(=O)C2)c1 (stereo unspecified)
→ 0.6%, -4%, 1%, .
CCN(C(=O)CSc1nnc(-c2c[nH]c3ccccc23)o1)C1CCS(=O)(=O)C1 (stereo unspecified)
→ 0.0%, -9%, 0%, 0
Cc1cc(-c2ccccc2)nc(N/N=C/c2cccnc2)n1
→ -1.7%, -6%, -5%, -1
COc1ccc(CN2C(=O)C(=O)N(CC(N)=O)C2=O)cc1
→ 2.8%, -3%, 3%, 4
CNC(=O)c1ccsc1NC(=O)c1ccc(S(=O)(=O)N2CCc3ccccc32)cc1
→ -0.9%, 21%, 2%, -13
Cc1cc(NC(=O)CSc2nnc(-c3cccs3)n2N)no1
→ -2.7%, 0%, 6%, 3
CCn1c2ccccc2c2cc(NC(=O)c3ccco3)ccc21
→ 0.4%, -34%, ?, -6
O=C(C1CC1)N1N=C(C2CCCCC2)CC1(O)C(F)(F)F (stereo unspecified)
→ -4.3%, 1%, 7%, 5
Cc1oc(S(=O)(=O)N(C)C)cc1C(=O)Nc1ccc(F)cc1
→ -4.2%, 1%, -8%, -3

Part of the list above with just Rango complex inh and GLA inh pH 4.5.
canonical_smiles | Rango complex inh | GLA inh pH 4.5
COc1cccc(C2NC(=O)c3sc(=S)n(-c4ccccc4)c3N2)c1 (stereo unspecified) | -0.7% | 3
CC(C)CCN=Cc1c(O)n(-c2ccccc2)c(=O)c2ccccc12 | -2.8% | -4

Screens as filed in PubChem.
